Six1-Eya2 inh: inhibitors of human Six1/Eya2 interaction | Q15475+O00167 | AlphaScreen GST-Six1/His-Eya2 binding, biochemical; hits give low values; control for the full effect not named in the record | activity change, % (no concentration beside the values) | actives 0.56% (n = 360,000); in the data active = activity change below about -65%; inconclusive = about -30% to -65%; inactive = above about -30%; note: % is set by controls: 0 for no effect and ±100 for the full control effect; compound concentration not given in the record
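AlphaScreen luminescence read after one hour at 37 °C in darkness. Pin-transferred compounds met GST-Six1 and His-Eya2 protein (5X stock 250 nM/500 nM) plus glutathione donor and Ni-chelate acceptor beads (5X, 50 ug/mL).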
D2 potentiator: positive allosteric modulators of human D2 dopamine receptor. P14416. DiscoveRx D2 beta-arrestin cells, luminescence, 90 min; 100% = 57 uM dopamine signal. potentiation, % (no concentration beside the values). actives 0.23% (n = 360,000); active = potentiation of 50% or more; inconclusive = 30% to 50%; inactive = 30% or less;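 note: compound concentration not given in the record; tested on top of an EC20 dose of dopamine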
Target sequence (P14416 whole entry, looked up): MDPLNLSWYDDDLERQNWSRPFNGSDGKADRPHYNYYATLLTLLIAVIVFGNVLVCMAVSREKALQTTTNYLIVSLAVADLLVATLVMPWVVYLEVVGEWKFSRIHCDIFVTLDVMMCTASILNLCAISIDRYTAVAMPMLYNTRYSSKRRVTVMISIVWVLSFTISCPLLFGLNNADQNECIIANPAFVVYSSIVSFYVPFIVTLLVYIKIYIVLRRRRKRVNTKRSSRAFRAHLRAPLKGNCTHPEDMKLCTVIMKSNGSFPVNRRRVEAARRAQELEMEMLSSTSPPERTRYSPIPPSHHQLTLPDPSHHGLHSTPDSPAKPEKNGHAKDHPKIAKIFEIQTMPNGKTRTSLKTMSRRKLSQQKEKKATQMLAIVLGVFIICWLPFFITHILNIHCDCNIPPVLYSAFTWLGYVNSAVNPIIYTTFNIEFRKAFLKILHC
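PathHunter D2 cells, attached overnight at 37 deg C, received compound in DMSO plus dopamine at EC20 (50 nM final) for 90 min at 37 deg C. Beta-arrestin recruitment was read as luminescence after 1 h with detection reagent at ambient temperature.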
TRPV1 PAM: enhances activation of the human vanilloid receptor TRPV1; potentiation, % at 8.33 µM; TRPV1-expressing cells, Fluo-8 calcium influx, capsaicin EC20 potentiation; host cell line not named in the record; control for the full effect not named in the record; actives 0.02% (n = 320,000); AID 540277; active means potentiation above 80%; inconclusive means 30% to 80%; inactive means below 30%; note: 0% is about no effect
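Cells expressing TRPV1 were dye-loaded with Fluo-8 and read kinetically: 10 s baseline, 3 min after compound (agonist portion), then 2 min after EC20 capsaicin (allosteric enhancer portion). Calcium-bound dye fluorescence at 480/520 nm.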
Sfp PPTase inh: blocks B. subtilis Sfp PPTase activity | Q9F4F7 | Biochemical Sfp PPTase activity, qHTS | Potency, µM, for the others: max response, negative = inhibition, actives largely listed as inhibitors | actives 3.5% (n = 310,000) | AID 1490; active = well fitted inhibition curve with a large enough effect; inconclusive = small, poorly fitted or top-dose-only effect, or another doubt; inactive = no such curve, though single readings can be large or run the other way;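 note: the enzyme is Sfp with the accession as filed and its product quenches rhodamine fluorescence; potency is the fitted concentration of half-maximal effect; 0% = enzyme reaction without inhibitor and -100% = no enzyme wells; top concentration of the series not given in the record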
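Sfp 15 nM + cpd, 15 min RT; start w/ rhodamine-CoA 5 uM, BHQ-2-YbbR 12.5 uM (final); 50 mM Hepes pH 7.6, 10 mM MgCl2, 0.01% NP-40, 0.01% BSA; read 525/598 nm at 0 and 30 min.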
D2 ag: human D2 receptor agonism in beta-arrestin assay; P14416; DiscoveRx PathHunter D2 beta-arrestin, luminescence, 90 min; 100% = 57 uM dopamine signal; activation, % (concentration not given with the values); actives 0.084% (n = 360,000); AID 624465; in the data active = activation above about 40%; inconclusive = about 15% to 40%; inactive = below about 15%; note: compound concentration not given in the record; the text of the record calls up to 30% inactive
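DiscoveRx PathHunter D2 beta-arrestin cells (2,100/well) attached overnight, then compound-stimulated 90 min at 37 C in HBSS/10 mM HEPES/0.1% Tween-20 buffer; beta-galactosidase complementation read by luminescence after 1 h at ambient temperature. Dopamine 57 uM final (EC100) as control.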
CtBP-E1A blk: blocks the CtBP interaction with E1A. AlphaScreen GST-E1A/His-CtBP binding, 1536-well; hits give low values; control for the full effect not named in the record. activity change, % (no concentration beside the values). actives 0.49% (n = 340,000). AID 651724; in the data active means activity change below about -65%; inconclusive means about -30% to -65%; inactive means above about -30%; note: % is set by controls: 0 for no effect and ±100 for the full control effect; compound concentration not given in the record
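Protein mix (5X: 125 nM each GST-E1A, His-CtBP) was incubated with pinned compound 2 h at 37 deg C in dark, in 50 mM Tris pH 8.0 buffer with 300 mM NaCl. Glutathione donor and nickel acceptor beads followed; AlphaScreen signal read after 1 h.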
PINK1 modulator: PINK1 expression modulation. PINK1 immunofluorescence, high-content cytometry, 24 h. Potency, µM (series often up to 76.6 µM), for inactives: top-dose activation (PINK1 increase), actives largely listed as activators. actives 0.2% (n = 410,000); active = well fitted activation curve with a large enough effect; inconclusive = small, poorly fitted or top-dose-only effect; inactive = flat fitted curve, though single readings scatter; cell line not stated here;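 note: potency is the fitted concentration of half-maximal effect; % of control where 0% means no effect; nearly all actives have a fitted effect of over 65% in size; a mitochondrial uncoupler was the plate control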
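Stable cell line treated 24 h with compounds at 5 concentrations (CCCP controls), then fixed and immunostained for PINK1 plus nuclear and cell stains; PINK1 immunofluorescence quantified by laser-scanning microplate cytometry.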
* marks the source's active call; other numbers are inactive results; ? = inconclusive; . = not tested or not shown; & = joins results of further samples; [ ] = another dose, or the depositor's remark.

The first 2 entries, to show the layout:
molecule,Six1-Eya2 inh,D2 potentiator,TRPV1 PAM,Sfp PPTase inh,D2 ag,CtBP-E1A blk,PINK1 modulator
CNS(=O)(=O)c1cc(O)c2c(S(=O)(=O)NC)cccc2c1,-2,4,-6,8%,-1.4,-1,-1.9%
COc1ccc(NC(=O)CNC(=O)C2CCCCC2)cc1,0,-4,-6,3%,-0.5,3,-1.1%

This part in full (from the top)
molecule,Six1-Eya2 inh,D2 potentiator,TRPV1 PAM,Sfp PPTase inh,D2 ag,CtBP-E1A blk,PINK1 modulator
CNS(=O)(=O)c1cc(O)c2c(S(=O)(=O)NC)cccc2c1,-2,4,-6,8%,-1.4,-1,-1.9%
COc1ccc(NC(=O)CNC(=O)C2CCCCC2)cc1,0,-4,-6,3%,-0.5,3,-1.1%
Nc1ccc(C(=O)Nc2ccc(NC(=O)c3ccco3)c(O)c2)cc1,-7,?,-15,-15%,-0.7,.,0.0%
CC1(C)CC(n2c(NCCO)nc3c(c2=O)C2(CCCC2)Cc2ccccc2-3)CCO1 (centres undefined),-3,-2,-15,-5%,-0.7,1,3.5%[38.3 µM]
CC(C)c1ccc(OCC(=O)Nc2ccc(OC(F)(F)F)cc2)cc1,17,6,-10,8%,-2.8,27,0.6%
CCCC(=O)NC(c1ccccc1Cl)c1ccc2cccnc2c1O (centres undefined),-85*,4,5,12%,-0.2,?,0.1%
CCc1nnc(NS(=O)(=O)c2ccc(NC(=S)NC(=O)c3cccs3)cc2)s1,-1,-2,12,?,-2.2,3,-1.4%
Cc1cccc(-n2cc[nH]c2=S)c1,-2,-17,-3,56µM*,-2.4,-1,-0.7%
Cc1cc(C(=O)COc2cc(F)ccc2[N+](=O)[O-])c(C)n1C1CC1,-10,1,-5,4%,-2.4,-12,-0.3%
O=C(CN1CCN(C(=O)CNC(=O)c2ccc(-c3ccccc3)cc2)CC1)Nc1ccccc1Cl,-1,-9,.,.,3.7,0,0.4%
COc1ccccc1NC(=O)c1[nH]c(C)c(C(C)=O)c1C,-1,-7,22,1%,-2.5,-6,2.3%
C/C(=N\NC(=O)C1CCCC1)c1ccc(NC(=O)C(F)(F)F)cc1,1,-3,.,.,-2.0,3,-0.4%
CCCCn1c(NC(=O)c2ccc(Br)o2)c(S(=O)(=O)c2ccccc2)c2nc3ccccc3nc21,-1,-7,19,9%,-6.7,11,0.2%[38.3 µM]
CCOC(=O)CCC(=O)Nc1ccc(S(=O)(=O)Nc2cc(OC)nc(OC)n2)cc1,-5,-1,8,14%,-4.3,-6,3.4%
CCOc1ccc(C(O)(c2ccccc2)C(CN2CCCC2)c2ccccc2)cc1 (centres undefined),0,-8,3,-1%,-3.7,-2,0.5%
Cc1cccc(NC2=NC(C)(C)N=C(N)N2)c1,17,-10,3,7%,0.0,0,-1.1%
Cc1cccc(NC(=O)c2cccc(NC(=O)Cc3cccs3)c2)c1,3,-1,13,-1%,3.5,2,-2.1%
COc1cccc(C(C)=NNc2ccc([N+](=O)[O-])cc2[N+](=O)[O-])c1OC,-16,4,.,.,1.5,-4,3.3%
COc1cc(C(=O)COC(=O)C2CCCCC2)cc(OC)c1OC,2,-9,.,.,-3.7,6,0.3%
Cc1nn(Cc2ccccc2)c(C)c1CNC(=O)c1ccc(F)c(S(=O)(=O)N2CCOCC2)c1,6,-4,-12,.,-4.4,.,4.9%
O=[N+]([O-])c1ccc(S(=O)(=O)NCCS(=O)(=O)N2CCN(c3ccccc3)CC2)cc1,-9,3,-2,4%,14,-6,2.8%
O=C(N/N=C/c1c[nH]c2ccccc12)c1cc(Br)ccc1O,-8,-22,-12,11%,-3.2,-25,3.2%
COc1ccc([C@H]2C[C@@H](n3cc(COC(=O)c4ccccc4)nn3)[C@H](O)CN2Cc2cccs2)cc1,0,2,.,.,-11,5,-0.5%
CN(C[C@H](Cc1ccccc1)N(C[C@H](CC1CCCCC1)N(CCc1ccccc1)N=O)N=O)N=O,-6,-1,2,19%,0.7,1,4.5%
CSCCC(NC(=O)c1ccccc1C)C(=O)O (centres undefined),6,8,10,8%,3.9,9,0.2%
COc1ccccc1/C=C1\SC(=O)N(CCC(=O)NNC(=O)c2ccccc2Cl)C1=O,-4,-14,-6,27%,0.5,-7,4.6%
Cc1cc(=O)oc2cc(OCC(=O)OCC(=O)N3CCC(C)CC3)ccc12,5,-16,5,18%,-0.1,-6,-1.6%
CC(C)(C)OC(=O)N1Cc2ccccc2C[C@H]1C(=O)NCC(=O)Nc1ccc2c(c1)OCCO2,1,-3,2,21%,-1.9,.,0.0%
CCCCNc1c(-c2ccc(OC)c(SC3CCCCC3)c2)nc2cnccn12,1,11,-14,.,2.9,.,-1.3%
Cc1nn(C)c(C)c1C(C)NC(=O)c1cc(COc2cncc(Cl)c2)on1 (centres undefined),-2,-9,-4,9%,-3.6,1,1.2%
C=C(C(=O)c1ccccc1)C(c1ccccc1)C(C)C(=O)c1ccccc1 (centres undefined),5,-19,-2,15%,-5.2,7,-1.1%
CCCCC1(c2ccc(F)cc2)NC(=O)N(CC(=O)Nc2ccc(N3CCOCC3)cc2)C1=O (centres undefined),-14,-15,.,.,-2.4,-7,2.6%
CN(Cc1ccccc1)C(=O)COC(=O)c1ccc(S(=O)(=O)N(C)C)cc1,-2,-3,-2,15%,0.7,9,1.2%
O=C(c1ccc2nc3ccccc3c(=O)n2c1)N1CCN(Cc2ccc3c(c2)OCO3)CC1,-23,-1,0,12%,-1.8,-6,?
CN(Cc1ccccc1)C(=O)COC(=O)c1ccccc1NS(=O)(=O)c1cccc(N)c1,-6,-8,17,-12%,-4.3,0,-0.4%
CC1=Nc2cc(Cl)ccc2Oc2ccccc21,2,-3,-10,?,9.8,.,9.2%
Cc1cc(C(=O)OCC(=O)Nc2ccc(F)cc2[N+](=O)[O-])c2ccccc2n1,-6,0,?,-21%,3.8,3,6.0%
Cc1ccc(NCCCn2cnc(C(=O)Nc3ccc(C)c(C)c3)n2)cc1C,-6,-1,.,.,-0.6,-5,0.5%
COc1ccc(C(=O)Nc2ncc(C)s2)cc1S(=O)(=O)N1CCOCC1,-3,-2,7,.,6.4,-4,1.9%
COc1ccc2c3c([nH]c2c1)C1(NCC3)C(=O)Nc2ccccc21 (centres undefined),-8,2,8,18%,-1.6,-1,3.7%
COc1ccc(S(=O)(=O)N2CCCOC2CNC(=O)C(=O)NCCc2ccco2)cc1OC (centres undefined),-8,-2,8,6%,1.3,6,0.8%
COc1cc(/C=N/O)cc(Br)c1OCC(=O)NCc1ccccc1,-1,-16,-4,0%,1.1,4,-0.5%
COc1cccc(CNc2ncc(Br)cc2Br)c1O,?,-1,15,-19%,8.4,-7,2.8%
Cc1ccc(C(=O)N2CCN(Cc3ccc4c(c3)OCO4)CC2)cc1S(=O)(=O)N1CCOCC1,-6,-22,-6,3%,-7.3,.,-0.4%
N#C/C(=C\c1cccc(Oc2ccc(C(F)(F)F)cc2[N+](=O)[O-])c1)c1nc2ccccc2[nH]1,0,0,16,18%,1.3,0,1.9%
COc1ccc(C)cc1NC(=O)NC(C)c1ccncc1 (centres undefined),-2,-16,8,20%,-3.9,.,0.9%
CCCCNC(=O)C1CC(=O)N(CCC(C)C)C1 (centres undefined),5,18,?,5%,0.4,-2,-1.3%
CCOC(=O)c1sc(NS(=O)(=O)c2ccccc2)nc1C,-1,-15,15,14%,0.1,8,-1.9%[38.3 µM]
Cn1c(C(=O)N2CCN(C(=O)c3ccco3)CC2)cc2c(=O)n3ccccc3nc21,-22,24,?,20µM*,2.0,?,0.4%
CCCC(=O)N(c1ccc(OC)cc1)C1C=CS(=O)(=O)C1 (centres undefined),-8,2,.,2%,-2.3,-9,.

New compounds follow
molecule,Six1-Eya2 inh,D2 potentiator,TRPV1 PAM,Sfp PPTase inh,D2 ag,CtBP-E1A blk,PINK1 modulator
CCOC(=O)C(C)n1cnc2c(cnn2-c2ccc(Cl)cc2)c1=O (centres undefined),5,2,-5,5%,-4.7,-1,-1.6%
Cc1nn(Cc2ccccc2)c(C)c1CCC(=O)O,3,1,2,12%,-4.6,4,-0.9%
COc1ccc(-n2c(=S)[nH]c3cc(C(=O)N4CCN(c5ccccc5)CC4)ccc3c2=O)cc1,4,0,10,13%,0.9,5,25%
O=C(Nc1ccc(Cl)cc1)c1nc[nH]c1C(=O)NCCCCNC(=O)c1[nH]cnc1C(=O)Nc1ccc(Cl)cc1,2,2,.,.,-0.6,5,-1.0%
CN(CC(=O)Nc1cccc(F)c1)C(=O)COc1ccc2c(c1)CCC2,-4,-13,.,.,-1.7,.,5.5%
COc1ccc(C2/C=C\CN(S(=O)(=O)/C=C/c3ccccc3)CC(=O)N2Cc2ccc(F)cc2)cc1 (centres undefined),-7,-2,-9,19%&6%,-4.0,-8,-0.1%
COc1ccc(N(C)S(=O)(=O)c2cccc(C(=O)NCC3CCCO3)c2)cc1 (centres undefined),5,-4,-2,10%,-2.7,8,0.8%
CCOc1ccc(CCNC(=O)COC(=O)c2cc(OC)cc(OC)c2)cc1OCC,-2,12,8,20%,-7.6,-15,1.7%
COc1cc2sc3ccc(C#Cc4ccc(N)cc4)cc3c(=O)c2cc1OC,1,14,.,.,-1.2,1,5.7%
Cc1c(C(=O)Nc2nc3ccccc3[nH]2)oc2ccc(Br)cc12,6,7,-2,14µM*,-3.9,-8,3.8%
Cc1nc(SCc2ccc(OCCC(C)C)cc2)n[nH]1,0,-6,3,6%,8.6,.,5.4%
COC(=O)C(CCC(C(=O)OC)N1C(=O)c2ccccc2C1=O)N1C(=O)c2ccccc2C1=O (centres undefined),-8,-7,.,.,-3.3,5,1.1%
Cc1ccc(NC(=O)CNc2ccccc2N2CCCC2=O)cc1S(=O)(=O)N1CCOCC1,2,11,13,.,0.8,-22,-1.3%
CCN(CC)C(=O)c1cccc(-c2csc(C(O)c3ccc(F)cc3)n2)c1 (centres undefined),1,-13,.,.,12,3,1.8%

Assay outcomes: PubChem BioAssay, National Center for Advancing Translational Sciences (NCATS)
